# Screening results as filed in PubChem.
# VCAM-1 up imaging: boosters of cytokine-driven VCAM-1 levels – imaging, high-content imaging, pooled HUVEC, TNFa stimulus (AID 457); calls only; 0.2% of 10,000 active; Pooled HUVEC, TNFa-induced VCAM-1 immunofluorescence imaging; hits of this screen are not shown here;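 active means a top-ranked rise in VCAM-1 staining upheld on image or statistical review; inactive means the rest, including candidates rejected on review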;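 further: compounds tested at 5 µM in the well; cells exposed to compound for 24 hours before fixing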
# FPR ligand: binds the human formylpeptide receptor FPR; P21462; FPR-expressing cells, fluorescent ligand binding, flow cytometry; inhibition, %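 (tested at 6.7 µM)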; 0.74% of 24,000 active;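 further: 0% = buffer wells and 100% = receptor blocker peptide wells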
# Target sequence (P21462 whole entry, looked up): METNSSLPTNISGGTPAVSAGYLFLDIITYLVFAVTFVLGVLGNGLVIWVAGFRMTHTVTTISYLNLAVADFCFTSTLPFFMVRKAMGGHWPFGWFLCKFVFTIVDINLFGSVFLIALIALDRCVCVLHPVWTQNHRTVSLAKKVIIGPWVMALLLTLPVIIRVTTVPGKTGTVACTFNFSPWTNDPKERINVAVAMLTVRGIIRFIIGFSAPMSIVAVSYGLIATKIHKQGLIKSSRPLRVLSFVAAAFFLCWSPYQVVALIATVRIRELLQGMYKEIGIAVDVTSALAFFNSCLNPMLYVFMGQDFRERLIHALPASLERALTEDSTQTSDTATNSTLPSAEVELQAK
# VCAM-1 down imaging: suppression of endothelial VCAM-1 upregulation – imaging, high-content imaging, pooled HUVEC, TNFa stimulus (AID 456) | HUVEC TNFa-induced VCAM-1 surface expression, immunofluorescence imaging; numbers were filed only for top-ranked candidate wells | inhibition, % at 5 µM, or IC50 in µM where a hit was titrated | 0.2% of 10,000 active;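 active means top tenth filtered wells with inhibition above zero that passed visual or statistical confirmation; inactive means the rest, including hits rejected on review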;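 further: 0% = stimulated vehicle wells and 100% = unstimulated cells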
# FPRL1 ligand: binds the human formylpeptide receptor-like-1 FPRL1 | FPRL1-expressing cells, fluorescent ligand binding inhibition, flow cytometry | inhibition, %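 (tested at 6.7 µM)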 | 0.3% of 24,000 active;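 further: 0% = buffer alone and 100% = receptor blocker peptide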
# Target sequence (P25090 whole entry, looked up): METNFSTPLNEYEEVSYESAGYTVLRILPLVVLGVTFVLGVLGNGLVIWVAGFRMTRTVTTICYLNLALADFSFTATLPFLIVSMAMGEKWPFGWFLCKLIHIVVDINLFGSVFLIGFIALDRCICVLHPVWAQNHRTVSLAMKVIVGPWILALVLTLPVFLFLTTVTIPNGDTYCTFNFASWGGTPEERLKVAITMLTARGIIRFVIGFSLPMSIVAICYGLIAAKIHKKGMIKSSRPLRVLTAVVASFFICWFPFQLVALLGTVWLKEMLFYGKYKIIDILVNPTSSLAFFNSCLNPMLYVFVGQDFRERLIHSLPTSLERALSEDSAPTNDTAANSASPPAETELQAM
# VCAM-1 down: inhibitors of TNFa-induced VCAM-1 surface display, cell-based, plate reader, pooled HUVEC, TNFa stimulus (AID 454); HUVEC TNFa-induced VCAM-1 surface immunofluorescence, plate reader; numbers were filed only for top-ranked candidate wells; inhibition, % at 5 µM; 0.2% of 10,000 active;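 active means compound among top-ranked inhibitors of TNF-induced VCAM-1 adhesion protein staining, with the hit upheld by image or statistical review; inactive means the rest, including hits rejected on review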;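 further: 0% = TNFa with vehicle and 100% = cells without TNFa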
# * hit, by the source's call; i = inactive; nt = not tested or not shown.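 How the source made its calls, unless noted: active means mean above 30%; inconclusive means self-fluorescent; inactive means the rest.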 A portion of the library; the hit share may differ from the screen's.
SMILES,VCAM-1 up imaging,FPR ligand,VCAM-1 down imaging,FPRL1 ligand,VCAM-1 down
Cc1ccc(S(=O)(=O)NCc2cn3c(C)csc3n2)cc1,nt,-9,nt,-3,nt
COc1cccc(-c2cc(N)nn2C(=O)Nc2ccc(Cl)cc2)c1,nt,-4,nt,0,nt
O=C(Nc1cccs1)Nc1ccccc1Cl,nt,-5,nt,8,nt
O=C(NCCN1CCOCC1)c1ccc(CS(=O)(=O)Cc2ccccc2F)o1,i,-12,i,-6,i
CN1CCN(c2ccccc2NC(=O)C(Cc2ccccc2)n2cccc2)CC1 (centres undefined),nt,-1,nt,-2,nt
COc1ccc(-n2c(Cc3cccn3C)nnc2SCC(=O)NCC2CCCO2)cc1 (centres undefined),i,3,i,-2,i
C=CCNC(=O)CCNS(=O)(=O)c1ccc(Br)cc1,nt,-4,nt,-4,nt
COc1ccccc1CN1C(=O)CN(C2CCCC2)C(=O)C1c1ccc(F)cc1 (centres undefined),nt,3,nt,-2,nt
CCOC(=O)c1c(NC(=O)c2noc3c2CCCC3)sc(C)c1C,nt,-1,nt,1,nt
FC(F)(F)c1nnc2ccc(NCn3nnc4ccccc43)nn12,i,4,i,2,i
Cn1c(C(=O)NC2CCCCC2)cc2c(=O)n(C)c3ccccc3c21,nt,-3,nt,-4,nt
O=C(O)CC(C(=O)Nc1cccc(C(F)(F)F)c1)C1CCCO1 (centres undefined),i,-3,i,2,i
COc1ccc(-n2c(Cc3cccn3C)nnc2SCC(=O)NCc2ccc(F)cc2)cc1,nt,1,nt,1,nt
CCc1ccc(C2CC(=O)N3CN(c4ccccc4)CSC3=C2C#N)cc1 (centres undefined),nt,20,nt,-1,nt
CCSc1nc2ccccc2n1S(=O)(=O)c1ccccc1,nt,1,nt,4,nt
Cc1ccc(CN2C(=O)CCC2C(=O)NCc2ccc(F)cc2)cc1 (centres undefined),nt,6,nt,-1,nt
CCCCN(CC)S(=O)(=O)N1CCC(C(=O)NCc2ccc(F)cc2)CC1,i,1,i,-2,i
O=C(NCc1ccco1)c1cc(-c2ccc(Cl)cc2)on1,nt,-4,nt,-2,nt
O=C(CSc1nc2c(c(=O)n1-c1ccc(F)cc1)SCC2)Nc1ccc2c(c1)OCO2,nt,-5,nt,9,nt
CCOc1ccc(NC(=O)c2ccc(F)c(S(=O)(=O)N3CCN(c4ccccn4)CC3)c2)cc1,nt,4,nt,-2,nt
Cc1ccc(NC(=O)CC2Nc3ccccc3NC2=O)cc1Cl (centres undefined),i,-1,i,-1,i
CCOC(=O)c1c(NC(=O)c2ccc(-n3cnnn3)cc2)sc2c1CCCC2,nt,-2,nt,7,nt
CCCNC(=O)CC(NS(=O)(=O)c1ccc(Cl)cc1)c1ccco1 (centres undefined),nt,-1,nt,1,nt
O=C(c1cccc(F)c1)N1CCN=C1SCc1cccnc1,nt,4,nt,5,nt
O=C(Nc1ccccc1-c1ccccc1)NC1CCN(C(=O)N2CCOCC2)CC1,i,0,i,-7,i
Cc1ccc(S(=O)(=O)N2CCCC2C(=O)OCc2ccco2)cc1 (centres undefined),i,-13,i,0,i
CCCc1[nH]nc2c1C(c1ccc(OC(=O)N3CCOCC3)cc1)C(C#N)=C(N)O2 (centres undefined),nt,-4,nt,5,nt
C=COCCn1c(=N)n(CCC)c2ccccc21,nt,-5,nt,9,nt
N#Cc1nc(-c2ccco2)oc1NCCc1ccccc1,i,4,i,3,i
COc1ccc(N2C(=O)NC3CC2(C)Oc2ccccc23)cc1OC (centres undefined),nt,2,nt,4,nt
COc1cccc2cc(C(=O)C3=C(O)C(=O)N(CCCN4CCOCC4)C3c3ccncc3)oc12 (centres undefined),i,-1,i,6,i
CCN(CC(=O)NC(=O)NCc1ccco1)Cc1nc2ccccc2c(=O)[nH]1,i,2,i,-2,i
CCOc1cccc(C2C(C(=O)c3ccco3)=C(O)C(=O)N2Cc2ccncc2)c1 (centres undefined),nt,13,nt,-4,nt
O=C(c1ccc(CS(=O)(=O)c2ccccc2)o1)N1CCOCC1,nt,20,nt,16,nt
Cc1onc(-c2ccccc2Cl)c1C(=O)N1CCN=C1SCc1cccnc1,nt,1,nt,4,nt
CS(=O)(=O)N(Cc1ccccc1)c1ccc(C(=O)N2CCOCC2)cc1,i,-2,i,5,i
COc1cc(NS(=O)(=O)N2CCCC2)cc(OC)c1OC,i,-5,i,-1,i
Cc1cccc(OCC(=O)Nc2cc(C)ccc2O)c1,i,24,74%,1,i
Nc1nc2c(s1)CCc1c-2cnn1-c1ccccc1,nt,5,nt,17,nt
S=c1[nH]nc(Cc2ccccc2)n1Cc1ccco1,i,1,i,0,i
Cn1c(=O)c2c(nc3sccn32)n(C)c1=O,i,-2,i,5,i
COC(=O)CSc1nsc(SCC(=O)OC)n1,nt,3,nt,-4,nt
O=C(O)c1c(Cl)c(Cl)c(Cl)c(Cl)c1C(=O)N1CCOCC1,nt,-3,nt,-1,nt
COc1cc2c(N3CCOCC3)cc(O)c(CC(=O)Nc3ccccc3)c2cc1OC,i,-1,i,7,i
Cn1c(=O)cc(SCC(=O)NCCCN2CCOCC2)c2ccc(Cl)cc21,nt,-4,nt,-2,nt
CCOc1cccc(NC(=O)C2CC(=O)N(C)C(=Nc3cccc(F)c3)S2)c1 (centres undefined),nt,-6,nt,-1,nt
COC(=O)C(Cc1cncn1COCc1ccccc1)NC(=O)OC(C)(C)C (centres undefined),nt,2,nt,-1,nt
OC1C[N+]2(CCCCC2)C1,i,6,i,1,i
CCOC(=O)N1CCC(NC(=O)C(NS(=O)(=O)c2ccc3c(c2)CCN3C(C)=O)C(C)C)CC1 (centres undefined),nt,4,nt,-2,nt
CCCCN(CC)CCCNC(=O)CS(=O)(=O)Cc1nc(-c2cccc(OC)c2)oc1C,i,-5,i,-5,i
CC1Cc2ccccc2N1C(=O)C12CCC(C)(C(=O)C1)C2(C)C (centres undefined),i,-3,i,3,i
CCOc1ccc(N(CC(=O)NCc2ccc(F)cc2)S(=O)(=O)c2c(C)noc2C)cc1,nt,7,nt,2,nt
CCN1CCN(c2nc(C)nc3c2sc(=S)n3C)CC1,i,-6,i,-2,i
CCN1CCN(C(=O)CSCc2nc(-c3ccc(OC)c(OC)c3)oc2C)CC1,nt,0,nt,9,nt
Cc1ccc(S(=O)(=O)NCCC(=O)NC2CCCC2)cc1,nt,4,nt,3,nt
CSc1cccc(NC(=O)CN(C)S(=O)(=O)c2ccccc2)c1,i,2,i,0,i
COc1ccc(Cc2nnc(NC(=O)c3c(-c4ccccc4)noc3C)s2)cc1OC,nt,22,nt,-6,nt
CCn1c(=O)cc(OCC(=O)O)c2ccccc21,nt,2,nt,2,nt
O=C(CN1CCN(c2ccccn2)CC1)Nc1ccc(Oc2ccccc2)cc1,nt,3,nt,1,nt
Cc1cc(NC(=O)Cc2c(F)cccc2Cl)no1,i,-3,i,-2,i

# Continuation:
SMILES,VCAM-1 up imaging,FPR ligand,VCAM-1 down imaging,FPRL1 ligand,VCAM-1 down
COc1cc(S(=O)(=O)N2CCN(c3ccccc3F)CC2)ccc1Cl,nt,-7,nt,0,nt
CC(C)n1c(NCc2c[nH]c3ccccc23)nc2ccccc21,i,-6,i,1,i
CC1(C)N=C(c2ccc(Cl)cc2)C(=O)N1,nt,-7,nt,7,nt
COc1cccc(/C(O)=C2/C(=O)C(=O)N(CCN3CCOCC3)C2c2cccs2)c1 (centres undefined),nt,15,nt,-4,nt
COc1cc(-c2nc(S(=O)(=O)c3ccccc3)c(N3CCOCC3)o2)cc(OC)c1OC,i,3,i,4,i
CCCN1C2CCCC1CC(NC(=O)c1ccccc1F)C2 (centres undefined),i,-4,i,-6,i
COC(=O)c1ccc2c(=O)n(NC(C)=O)c(=S)[nH]c2c1,i,-4,i,1,i
Cc1cc(S(=O)(=O)NCc2ccc(S(N)(=O)=O)cc2)c(C)s1,nt,0,nt,0,nt
CCOC(=O)c1oc2ccc(S(=O)(=O)N3CCC(C)CC3)cc2c1C,nt,7,nt,9,nt
COc1ccc(NC(=O)CSc2nnc(Cc3cccn3C)n2-c2ccc(OC)cc2)cc1,nt,7,nt,5,nt
CCCC(=O)N(c1ccc(OCC)cc1)C1C=CS(=O)(=O)C1 (centres undefined),nt,-3,nt,-6,nt
COCCNC(=O)C1CCN(S(=O)(=O)N2CCC3(CC2)OCCO3)CC1,nt,1,nt,-8,nt
CCc1ccccc1-n1c(SCC(=O)Nc2ccc3c(c2)OCCO3)nc2[nH]ncc2c1=O,nt,2,nt,0,nt
COc1ccc(-c2cn3c(C)c(C(=O)NC(C)C)sc3n2)cc1,nt,-2,nt,-2,nt
O=C(c1sc2ccccc2c1Cl)N(Cc1cccs1)C1CCS(=O)(=O)C1 (centres undefined),i,3,i,-2,i

# The last two records of the part before come first, to join the parts.
SMILES,VCAM-1 up imaging,FPR ligand,VCAM-1 down imaging,FPRL1 ligand,VCAM-1 down
COc1ccc(-c2cn3c(C)c(C(=O)NC(C)C)sc3n2)cc1,nt,-2,nt,-2,nt
O=C(c1sc2ccccc2c1Cl)N(Cc1cccs1)C1CCS(=O)(=O)C1 (centres undefined),i,3,i,-2,i
Brc1ccc(-c2nnc3sc(CN4CCC5(CC4)OCCO5)cn23)cc1,i,0,i,2,i
CN1CCN2c3ccccc3Cc3ccccc3C2C1 (centres undefined),i,3,i,-1,i
CC(C)OCCCNC(=O)Cn1ncc2c(=O)oc3ccccc3c21,nt,2,nt,-1,nt
O=S(=O)(c1cccc2nsnc12)N1CCc2ccccc21,nt,-1,nt,6,nt
CCn1c2ccccc2c2nnc(SCC(=O)NC(C(=O)OC)C(C)C)nc21 (centres undefined),nt,0,nt,0,nt
CCCCS(=O)(=O)NC1=NCN(C2CCN(Cc3ccccc3)CC2)CN1,i,-3,i,-8,i
O=C(NCCC1=CCCCC1)C1CCCN(c2nc3ccccc3o2)C1 (centres undefined),nt,3,nt,-2,nt
C=CCOc1ccc(/C(O)=C2/C(=O)C(=O)N(CCCN3CCOCC3)C2c2ccccc2)cc1 (centres undefined),nt,7,nt,-6,nt
O=S(=O)(Cc1ccccc1Cl)N1CCCCC1,nt,2,nt,-2,nt
O=C1CCC(C(=O)NC2(C(=O)NC3CCCCC3)CCCCC2)N1 (centres undefined),nt,-4,nt,-3,nt
CCN(CC)S(=O)(=O)N1CCC(C(=O)NCc2ccc(C)cc2)CC1,nt,-2,nt,0,nt
Cc1ccc(NC(=O)C2CCCN(S(=O)(=O)c3c(C)noc3C)C2)c(C)c1 (centres undefined),nt,2,nt,1,nt
Cc1nc2nc(C)c(CCC(=O)NCc3ccc4c(c3)OCO4)c(C)n2n1,nt,-1,nt,4,nt
CCCN(CCC)S(=O)(=O)c1ccc(C(=O)Nc2nnc(-c3cccc(OC)c3)o2)cc1,i,0,i,-2,i
COc1ccccc1S(=O)(=O)Cc1ccc(C(=O)NCCN2CCCCCC2)o1,i,2,i,-2,i

# Quoted at random: 2 entries already listed.
SMILES,VCAM-1 up imaging,FPR ligand,VCAM-1 down imaging,FPRL1 ligand,VCAM-1 down
C=CCOc1ccc(/C(O)=C2/C(=O)C(=O)N(CCCN3CCOCC3)C2c2ccccc2)cc1 (centres undefined),nt,7,nt,-6,nt
Cc1ccc(NC(=O)C2CCCN(S(=O)(=O)c3c(C)noc3C)C2)c(C)c1 (centres undefined),nt,2,nt,1,nt

# Record cards, as listed above.
# O=C(NCCC1=CCCCC1)C1CCCN(c2nc3ccccc3o2)C1 (centres undefined) across the screens: VCAM-1 up imaging: nt; FPR ligand: 3; VCAM-1 down imaging: nt; FPRL1 ligand: -2; VCAM-1 down: nt
# O=S(=O)(c1cccc2nsnc12)N1CCc2ccccc21 across the screens: VCAM-1 up imaging: nt; FPR ligand: -1; VCAM-1 down imaging: nt; FPRL1 ligand: 6; VCAM-1 down: nt

# Next structures follow.
SMILES,VCAM-1 up imaging,FPR ligand,VCAM-1 down imaging,FPRL1 ligand,VCAM-1 down
CCOC(=O)c1cnn(-c2ncnc3c2cnn3Cc2ccccc2)c1N,i,3,i,-1,i
O=C(CSc1nnc(-c2ccco2)n1CC1CCCO1)NC1CCCC1 (centres undefined),i,-4,i,-4,i
O=C(NC1=NCCS1)c1nc(-c2ccccc2)n(-c2ccccc2)n1,i,-3,i,0,i
CCN1CCN(Cc2ccc(NC(=O)Nc3ccccc3OC)cc2)CC1,nt,-6,nt,-3,nt
CC(=O)Nc1c(OC(C)=O)ccc2c(C)cc(=O)oc12,nt,3,nt,0,nt
O=C(NCc1ccco1)c1ccccc1Nc1ccc(F)cc1,i,-5,i,1,i
CCOc1ccccc1-c1nc(-c2ccc(NC(=O)Cc3ccc(OC)cc3)cc2)no1,nt,-2,nt,-2,nt
CS(=O)(=O)N1CCC(C(=O)NCCC2=CCCCC2)CC1,i,-1,i,-4,i
CCCc1cc(-c2n[nH]c(C)c2-c2ccc(C(=O)OCC)o2)c(O)cc1O,i,11,i,-3,i
